From PubChem BioAssay
Rango complex inh = qHTS Assay for Inhibitors of Rango (Ran-regulated importin-beta cargo) - Importin beta complex formation; Rango CFP/YFP FRET sensor + importin beta, 45 min; Potency, µM (top dose mostly 92.2 µM), inactives show top-dose inhibition of complex formation; 340,000 compounds, 0.031% hits; AID 540263, 2011; active = rising FRET ratio curve, often small or poorly fitted; inconclusive = mostly compound fluorescence or quenching in the first reads; inactive = flat curves in all reads;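 note: potency is the fitted concentration of half-maximal effect; 0% = DMSO wells and 100% = buffer wells lacking importin beta; nearly all actives have a fitted effect of over 15% in size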
Target sequence (Q14974 whole entry, looked up): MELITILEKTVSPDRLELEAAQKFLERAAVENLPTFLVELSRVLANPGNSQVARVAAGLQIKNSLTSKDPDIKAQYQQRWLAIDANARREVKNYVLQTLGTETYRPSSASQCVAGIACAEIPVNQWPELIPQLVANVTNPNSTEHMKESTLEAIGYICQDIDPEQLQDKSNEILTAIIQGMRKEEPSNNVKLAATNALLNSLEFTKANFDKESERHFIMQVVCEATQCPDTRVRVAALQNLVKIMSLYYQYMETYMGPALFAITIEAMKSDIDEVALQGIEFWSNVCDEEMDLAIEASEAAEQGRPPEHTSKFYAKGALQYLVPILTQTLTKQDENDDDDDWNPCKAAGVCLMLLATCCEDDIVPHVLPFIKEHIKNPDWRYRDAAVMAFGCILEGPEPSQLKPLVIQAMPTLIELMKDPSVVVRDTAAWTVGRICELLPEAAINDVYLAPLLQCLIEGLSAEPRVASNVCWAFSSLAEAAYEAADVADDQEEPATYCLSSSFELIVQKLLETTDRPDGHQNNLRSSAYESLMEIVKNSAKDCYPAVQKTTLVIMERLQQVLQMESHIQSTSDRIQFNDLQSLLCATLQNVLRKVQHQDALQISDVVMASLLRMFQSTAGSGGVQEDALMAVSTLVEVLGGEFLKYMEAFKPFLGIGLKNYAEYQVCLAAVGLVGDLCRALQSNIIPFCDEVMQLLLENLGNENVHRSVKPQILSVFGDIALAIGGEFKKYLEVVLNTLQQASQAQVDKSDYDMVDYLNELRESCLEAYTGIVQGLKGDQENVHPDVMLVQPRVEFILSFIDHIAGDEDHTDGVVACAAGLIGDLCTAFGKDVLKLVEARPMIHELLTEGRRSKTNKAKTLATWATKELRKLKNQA
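FRET biosensor (snurportin 1 IBB flanked by EYFP and cerulean), 50 nM, with compound 5 min, then 0.125 microM importin beta in PBS, 1 mM DTT, 0.02% Tween-20, 0.1% BSA. CFP/YFP ratio read after 45 min at room temperature; pre-read flags interference.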
miR-21 FLuc = qHTS Assay for Modulators of miRNAs and/orActivators of miR-21; 340,000 tested, under 10 active; HeLa miR-21 FLuc reporter, luciferase, 48 h; Potency, µM (top dose mostly 38.3 µM), inactives show at the top dose reporter change, positive = more light; active = well fitted rising curve with a large enough effect; inconclusive = small, poorly fitted or top-dose-only effect; inactive = no such curve, though single readings can be large or run the other way;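 note: % of control where 0% means no effect; miR-21 action dims this reporter so a rising signal means less miR-21 action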
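HeLa miR-21-FLuc reporter line, endogenous miR-21; 2000 cells/well in DMEM/10% FBS; compound titration up to ~40uM final, 48 h, 37 degree Celsius; luciferase detection reagent, 15 min lysis, CCD luminescence.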
GLA inh pH 4.5 = qHTS Assay for Inhibitors of Human alpha-Galactosidase at pH 4.5; Alpha-galactosidase A (Homo sapiens), P06280; purified enzyme, 4-MU-alpha-Gal fluorescence, pH 4.5; activity change, negative = inhibition, % at 105 µM; 230,000 tested, under 10 active; AID 1467, 2008; inconclusive = small, poorly fitted or top-dose-only inhibition, or a rising curve; inactive = flat fitted curve, though single readings scatter; no compound was filed as active;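 note: 0% = full activity with enzyme and -100% = basal without enzyme; dose as in the result columns while the protocol names 77 µM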
Rango release inh = qHTS Assay for Inhibitors of RanGTP induced Rango (Ran-regulated importin-beta cargo) - Importin beta complex dissociation. 340,000 compounds, 0.071% hits. Biochemical FRET Rango-importin beta, RanGTP-induced dissociation. Snurportin-1 (Homo sapiens) + GTP-binding nuclear protein Ran (Homo sapiens) + Importin …. Potency, µM (titrated, usually from 46.1 µM), without a hit: at the top dose activity change, negative = inhibition. AID 540253, 2011; active means falling FRET ratio curve, often poorly fitted, with flat reads before Ran was added; inconclusive means other falling curves, or compound fluorescence or quenching; inactive means flat or rising ratio curve;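 note: potency is the fitted concentration of half-maximal effect; % of control where 0% means no effect; nearly all actives have a fitted effect of over 45% in size; -100% = wells without RanGTP and RCC1; the record marks most hits as doubtful in a second field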
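Compounds preincubate 5 min with complex of recombinant Rango and importin beta in PBS with 1 mM DTT. Ran (0.6 uM) loaded with 2 mM GTP plus 0.2 uM RCC1 starts dissociation; FRET is recorded 45 min later.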
Active calls of the source: *; u = inconclusive; x = not tested or not shown. The list is partial (hit frequency here may not be typical).

Preview, three compounds:
SMILES	Rango complex inh	miR-21 FLuc	GLA inh pH 4.5	Rango release inh
Cc1cc(/C=N/n2cnnc2)c(C)n1-c1cccc(C(=O)O)c1	-1.7%	-1.1%	-5.2	-1.6%
CC1CN(S(=O)(=O)c2ccc(C(=O)Nc3nncs3)cc2)CC(C)O1 (centres undefined)	-3.1%	x	x	0.1%
O=C(Nc1ccc(Cl)cc1C(=O)NCc1cccnc1)c1ccco1	-1.5%	0.5%	-17.2	2.4%

All compounds of this part (from the top)
SMILES	Rango complex inh	miR-21 FLuc	GLA inh pH 4.5	Rango release inh
Cc1cc(/C=N/n2cnnc2)c(C)n1-c1cccc(C(=O)O)c1	-1.7%	-1.1%	-5.2	-1.6%
CC1CN(S(=O)(=O)c2ccc(C(=O)Nc3nncs3)cc2)CC(C)O1 (centres undefined)	-3.1%	x	x	0.1%
O=C(Nc1ccc(Cl)cc1C(=O)NCc1cccnc1)c1ccco1	-1.5%	0.5%	-17.2	2.4%
O=C(c1cnccn1)N1CCc2ccccc21	-7.2%	-10.1%	12.0	-2.5%
CC(C)C[C@H](NC(=O)N1CCn2c1nc1ccccc12)C(=O)NCc1ccccc1	1.9%	6.4%	x	-23.3%
Cc1noc(C)c1CSc1ccccc1C(=O)Nc1nccs1	-0.9%	0.1%	1.3	2.0%
O=[N+]([O-])c1ccc(Cc2nnc(-c3ccccc3Cl)o2)cc1	1.5%	-45.6%	3.2	9.1%
O=C(NCCSCc1c(F)cccc1Cl)c1ccco1	5.0%	-50.9%	-5.4	10.3%
Cc1cccc2cc(COC(=O)c3ccccn3)c(=O)[nH]c12	0.9%	-2.4%	-2.2	2.0%
O=C(CSc1nncs1)Nc1ccc2c(c1)OCCO2	-0.1%	-51.6%	6.1	-0.2%
O=C(CSc1nnc(-c2cnccn2)n1Cc1ccco1)c1ccc(Cl)c(Cl)c1	3.5%	-3.4%	-5.8	5.8%
O=[N+]([O-])c1ccc2[nH]c3nc4ccccc4nc3c2c1	1.4%	-14.6%	5.9	21.3%
COC(=O)C1CCCN1C(=O)COc1ccc(Cl)cc1Br (centres undefined)	2.7%	0.6%	-1.3	3.2%
O=C(Nc1ccccc1)NC1CCCCC1	0.1%	-31.1%	-7.0	-1.6%
CN1CCN(C(CNS(=O)(=O)c2ccc(F)cc2)c2cccnc2)CC1 (centres undefined)	-0.5%	-5.8%	-3.8	-0.2%
O=C(Cn1[nH]c(=O)c2ccccc2c1=O)NC1CCCCCC1	-3.8%	-34.2%	1.6	-2.9%
COc1ccc(NC(=O)Oc2cc(C)ccc2C(C)C)cc1	5.8%	-11.5%	2.3	0.8%
Cc1c(C(=O)NCCSCc2cccc(C(F)(F)F)c2)cnn1-c1ccc(F)cc1	-1.2%	5.7%	-16.7	-3.5%
COc1ccc2cc3cc(C(=O)N4CCCCC4C)oc3nc2c1 (centres undefined)	0.5%	-40.2%	x	-11.9%
O=C(/C=C\c1ccc(-c2cccc([N+](=O)[O-])c2)o1)N1CCOCC1	-2.7%	-79.5%	-9.3	-4.8%
O=C(C=C1NCCN1)c1ccccc1	2.6%	x	x	-23.4%
CCN(C(=O)c1ccc(S(C)(=O)=O)cc1)C12CC3CC(CC(C3)C1)C2	1.1%	-4.3%	7.4	2.4%
COC(=O)c1oc2ccc(Cl)cc2c1N	-2.7%	-37.5%	-1.4	8.0%
Cc1ccc(S(=O)(=O)Nc2cccc3cccnc23)cc1	-2.8%	u	10.2	-3.9%
CCCCC(=O)Nc1nnc(SCC(=O)Nc2ccc(OC)cc2)s1	0.3%	-4.9%	x	-0.4%

Next section:
SMILES	Rango complex inh	miR-21 FLuc	GLA inh pH 4.5	Rango release inh
COc1ccc(S(=O)(=O)N(CC(=O)NCCC(C)C)c2ccccc2)cc1OC	-6.2%	-1.0%	5.6	1.7%
COc1ccc(F)cc1C(=O)C1CCCN(Cc2cccn2-c2ccccn2)C1 (centres undefined)	0.8%	24.3%	1.9	6.4%
CCOC(=O)C1CCN(Cc2cnc(Oc3ccc(N)cc3)s2)CC1	-0.2%	-10.4%	4.7	-9.9%
COc1ccc(NC(=O)CCSc2ccc(C)cc2)cc1	0.8%	-18.4%	17.1	4.3%
CC(C)N(Cc1ccccc1)C(=O)CN1C(=O)NC2(CCOc3ccccc32)C1=O (centres undefined)	-2.4%	x	x	-1.6%
COc1ccc(Cl)cc1NC(=O)Cn1nc(-c2ccc(C)cc2)n(C)c1=S	0.4%	-0.7%	1.9	10.1%
COc1ccc(C2C(C(=O)/C=C/c3ccco3)=C(O)C(=O)N2CCN2CCOCC2)cc1 (centres undefined)	u	0.8%	2.9	u
COc1ccc(NC(=O)c2cc(Cl)ccc2Cl)c([N+](=O)[O-])c1	-0.2%	-7.6%	-0.6	14.9%
O=[N+]([O-])c1cc(C(F)(F)F)ccc1Sc1nccn1Cc1ccccc1	2.8%	-1.9%	2.4	1.2%
CC1=CC(C)(C)n2c(O)c(N=N)c3c(C)ccc1c32	0.0%	-22.9%	-0.3	-6.0%
O=C(Cc1cn2ccsc2n1)NCc1ccccc1	-1.6%	-9.7%	0.3	12.8%
CC(=O)Nc1ccc(OCC(O)Cn2cncn2)cc1 (centres undefined)	1.2%	0.3%	x	4.7%
COCCOc1ccc(C(F)(F)F)cc1NC(=O)CN1C(=O)NC2(CCCc3ccccc32)C1=O (centres undefined)	-1.0%	x	x	-1.6%
COc1cccc(CN2CCC(C(=O)N3CCN(c4ccccc4F)CC3)CC2)c1OC	-0.7%	-2.6%	10.1	-15.2%
COc1cccc(C2CC(c3cccs3)=NN2C(=O)CCC(=O)O)c1OC (centres undefined)	-1.5%	-21.8%	x	-11.8%
Cc1cccc(C)c1NC(=O)CSc1ncnc2nc[nH]c12	2.1%	-0.4%	1.4	-13.3%
O=C(Nc1cccnc1)c1cccc(F)c1	-0.1%	-6.5%	2.1	16.2%
Cc1ccc(/C=C/C(=O)NCc2cccs2)o1	u	-23.6%	1.5	-19.3%
CN(C(=O)c1ccncc1)c1nnc(-c2cnccn2)s1	-0.9%	1.7%	-24.6	-6.8%
Cc1c(NC(=O)Nc2cccc(C#N)c2)c(=O)n(-c2ccccc2)n1C	4.8%	7.0%	x	0.3%
CC(=O)NCCNC(=O)CNC(=O)c1ccc(Cl)cc1	1.0%	-6.6%	3.2	-1.9%
CCn1c(=O)c(C(=O)Nc2cnccn2)c(O)c2ccccc21	x	-5.1%	-7.1	x
COc1ccccc1CN1CCN(C(c2ccccc2)c2ccccc2)CC1	-0.6%	20.7%	x	-3.8%
Cc1nnc(NC(=O)C(C)Sc2nnc(-c3ccco3)n2C)s1 (centres undefined)	0.8%	0.0%	x	0.1%
O=C(COC(=O)c1c2c(nc3ccccc13)CCCCC2)c1ccc(Cl)s1	6.1%	-4.3%	-2.0	-8.3%

Following part
SMILES	Rango complex inh	miR-21 FLuc	GLA inh pH 4.5	Rango release inh
Cc1cccc(C)c1NC(=O)C1CCCNC1 (centres undefined)	-0.9%	1.8%	0.0	30.3%
Cc1cc(C)n2nc(SCC(=O)N3CC(C)CC(C)C3)nc2n1 (centres undefined)	-4.1%	x	x	-2.2%
CC(C)OCCCn1c(=O)c2ccccc2n2c(CCC(=O)NC3CCN(Cc4ccccc4)CC3)nnc12	1.9%	1.8%	x	10.8%
Cc1cccc(C(C#N)c2ccc(Cl)nn2)c1 (centres undefined)	0.3%	6.2%	6.4	1.7%
COc1ccc(C(=O)Nc2ccc(NC(=O)c3cccs3)cc2)cc1[N+](=O)[O-]	0.7%	-5.3%	-7.3	1.0%
COc1ccc(/C=N/NC(=O)c2ccc3c(c2)NC(=O)C(C)(C)O3)cc1OC	0.1%	1.3%	x	19.6%
CCS(=O)(=O)c1nc(S(=O)(=O)c2ccc(C)cc2)c(NCc2ccccn2)s1	-0.3%	0.5%	-4.0	-8.5%
O=C1CC(c2cccnc2)c2cc3c(cc2N1)OCCO3 (centres undefined)	-0.5%	-10.9%	2.4	6.6%
COc1ccccc1NC(=O)CCSc1nnc(-c2ccncc2)o1	-3.7%	2.2%	-0.1	10.1%
COc1cccc(-c2cc(C(=O)Nc3ccc(OC)c(OC)c3)no2)c1	2.9%	-18.6%	-2.0	8.1%
COC(=O)c1cccc(C(=O)Nc2cnc3ccccc3c2)n1	4.4%	-14.7%	1.4	-13.9%
O=C(CSC1=NS(=O)(=O)c2ccccc2N1)Nc1ccc(F)cc1	-0.6%	x	x	13.7%
CC1(C)CN=C(NC2CCCCC2)S1	2.8%	-8.9%	-6.6	23.8%
CONc1nc2nonc2nc1NOC	-0.3%	-1.1%	-4.1	-5.4%
Cc1ccsc1CN(C)CC(=O)Nc1ccc([N+](=O)[O-])cc1Cl	4.1%	6.9%	x	3.4%
CC1C(=O)N(c2ccc(S(=O)(=O)N(C)C)cc2)C1(/C=C/c1ccccc1)C(=O)NC1CCCC1 (centres undefined)	-1.8%	4.3%	-3.4	2.5%
O=C(OCC(=O)N1CCN(Cc2ccccc2)CC1)c1ccc(Cl)cc1	-0.2%	-0.8%	6.6	4.2%
CC(=O)c1sc(NC(=O)c2cccs2)nc1C	-2.0%	-11.9%	x	-4.6%
CCN(CC)S(=O)(=O)c1ccc(N2CCCCC2)c(NC(=O)/C(C#N)=C/c2ccc(OC)cc2)c1	1.5%	-1.5%	-3.0	3.3%
CCOc1ccc(Nc2nc(Cc3nnc(SCC(=O)NC4CCCC4)n3C)cs2)cc1	-1.8%	-0.1%	8.7	-13.4%
NS(=O)(=O)c1ccc(N2N=C(c3ccccc3)CC2c2ccccc2Br)cc1 (centres undefined)	u	x	x	3.7%
Cc1ccc(-c2nc3ccccc3c(=O)n2Cc2ccccc2)cc1	3.4%	-10.1%	-10.9	5.1%
CCn1c(-c2cc(-c3ccccc3)sc2N)n[nH]c1=S	u	-6.5%	-7.9	3.5%
CC(=O)Oc1ccc(C2C3=C(CC(C)(C)CC3=O)Nc3cc4c(cc32)OCCO4)cc1 (centres undefined)	-0.3%	-0.7%	15.8	13.5%
CC(C)=NNc1nc(-c2ccccc2)c(C)s1	u	-6.8%	-7.1	-16.4%

Entries of single compounds as entered above.
`CCN(CC)S(=O)(=O)c1ccc(N2CCCCC2)c(NC(=O)/C(C#N)=C/c2ccc(OC)cc2)c1` as listed: Rango complex inh = 1.5%; miR-21 FLuc = -1.5%; GLA inh pH 4.5 = -3.0; Rango release inh = 3.3%
`COc1ccccc1NC(=O)CCSc1nnc(-c2ccncc2)o1` as listed: Rango complex inh = -3.7%; miR-21 FLuc = 2.2%; GLA inh pH 4.5 = -0.1; Rango release inh = 10.1%

Next section.
SMILES	Rango complex inh	miR-21 FLuc	GLA inh pH 4.5	Rango release inh
CCC(C)NC(=O)CSc1ncnc2sccc12 (centres undefined)	0.4%	-2.1%	-4.6	-16.2%
COc1ccc(/C=N/c2oc(-c3ccccc3)cc2C#N)cc1	1.6%	-22.1%	-0.5	0.2%
COc1ccc(OC)c(CNC(=O)C2CCC(=O)N2C(C)C)c1 (centres undefined)	1.2%	-0.7%	x	-0.7%
Cc1ccc(S(=O)(=O)c2nnn3c2nc(N2CCOCC2)c2ccccc23)c(C)c1	1.7%	-11.2%	x	-2.5%
CCN(CC)CCC=C(c1cccs1)c1cccs1	-1.0%	x	x	-3.2%
Cc1ccc(C(=O)Nc2nnc(S(=O)(=O)Nc3ccccc3C)s2)cc1C	7.2%	-20.5%	x	-2.6%
CC[C@]1(C(=O)OC)[C@H]2C(=O)N(C)C(=O)[C@H]2[C@H]2CN=C(SCc3ccc(OC)cc3)N21	2.3%	x	x	-1.5%
COc1ccc(/C=C(\C)c2nc(C)c(-c3ccccc3)c(=O)[nH]2)cc1	-4.3%	0.2%	13.9	-24.3%
CCSc1ccccc1C(=O)N=C1NC(=O)CC2C(=O)NCCN12 (centres undefined)	-3.0%	1.4%	1.8	0.8%
CCN(C(=O)COC(=O)/C=C/c1ccc2c(c1)OCO2)c1c(N)n(Cc2ccccc2)c(=O)[nH]c1=O	-2.4%	x	x	28.7%
CC1CCc2c(sc(NC(=S)NC(=O)c3ccccc3)c2C#N)C1 (centres undefined)	-1.9%	-42.5%	-2.0	20.4%
